Calb biofilm kill: mixture kills Candida albicans biofilm cells; AID 1242; inhibition, % at 7.6 µM; C. albicans biofilm persisters + clotrimazole, fluorescence viability; primary screen in compound mixtures of four per well; 0.02% of 120,000 active;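 active = inhibition above 30.3% in the primary screen of four-compound pools, then above 30% when the compound was retested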;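 also: compounds exposed to preformed 24 h biofilms for 48 h; the number belongs to the whole pool; some results filed as inactive read as strong as hits; inactives centre near 12; 0% = biofilm with clotrimazole alone and 100% = kill control; retested singly at about 60 µM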
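Probe or stimulus – Clotrimazole 50 µg/mL co-treatment · System – C. albicans biofilms · Schedule – 24 h biofilm formation, then 48 h compound exposure, 37 °C · Evaluation – percent inhibition of biofilm viability · Technique – 2-h Alamar Blue fluorescence, 535/590 nm excitation/emission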
Active calls of the source: *. A portion of the library; the hit share may differ from the screen's.

SMILES	Calb biofilm kill
COC(=O)c1ccc(NC(=S)NCCc2ccc(OC)cc2)cc1	12
COc1ccc(C(=O)NC(=S)Nc2ccccc2[N+](=O)[O-])cc1OC	4
Cc1ccc(NS(=O)(=O)c2ccc(C(=O)OCC(=O)NCC3CCCO3)cc2)cc1 (stereo not given)	18
CC(=O)Nc1ccc(S(=O)(=O)N(CCc2ccccc2)CC(=O)N/N=C/c2ccc(C(=O)O)cc2)cc1	5
COc1ccccc1N1CC(C)C(=O)NC1=S (stereo not given)	8
CC(=O)Nc1ccc(-c2csc(NC(=O)C3CCN(S(=O)(=O)c4cccs4)CC3)n2)cc1	16
COc1cc(CC(=O)Nc2cccc(C(F)(F)F)c2)cc(OC)c1OC	7
COc1ccc2c(c1)c(CC(=O)Nc1cccc(S(N)(=O)=O)c1)c(C)n2C(=O)c1ccc(Cl)cc1	16
Cn1cnc2cc(NCc3cccs3)ccc21	15
CCN(c1ccccc1)S(=O)(=O)c1ccc(Cl)c(NC(=O)Nc2ccc(Cl)cc2C#N)c1	5
Cc1ccc(-c2csc3ncnc(SCC(=O)O)c23)cc1	27
CCC(C)NC(=O)c1ccccc1NC(=O)/C(=C/c1ccc(OC)cc1)c1ccccc1 (stereo not given)	7
O=C1ON=C(c2ccccc2)/C1=C/c1ccco1	14
CSc1cccc(CN2CCC(CO)(Cc3ccccc3)CC2)c1	3
Cc1ccnc(NC(c2ccsc2)c2ccc3ccc(C)nc3c2O)c1 (stereo not given)	11
CC12C=CC3(O1)C(C(=O)N1CCCOC13)C2C(=O)O (stereo not given)	19
Cc1ccc(C(=O)NN(CCC(=O)NC(C)(C)C)C2=NS(=O)(=O)c3ccccc32)cc1	-2
O=C(CCS(=O)(=O)c1ccccc1)Nc1ccccc1F	20
CC(C)c1ccc(NC(=S)NNC(=O)c2cccs2)cc1	20
CCN(CC)S(=O)(=O)c1cc(NC(=O)COC(=O)c2ccc(NC(=O)CC#N)cc2)ccc1C	12
COc1ccccc1NC(=O)Cn1nnc(-c2ccccc2NS(=O)(=O)c2ccccc2)n1	19
CCc1nnc(NC(=O)C2Cc3ccccc3CN2S(=O)(=O)CC)s1 (stereo not given)	18
O=C(O)c1cccc(-c2ccc(/C=c3/sc4nc5ccccc5n4c3=O)o2)c1	23
Cc1cccc(S(=O)(=O)NCCC(=O)OCC(=O)Nc2ccc(C#N)cc2)c1	12
Cc1ccnc(SCc2cn3c(C)cc(C)nc3n2)n1	7
CCN(CC)S(=O)(=O)c1ccc(C)c(NC(=O)CN2CCN(Cc3ccccc3)CC2)c1	16
O=C(NCc1ccccc1Cl)C1CCCN(c2nc3ccsc3c(=O)s2)C1 (stereo not given)	16
O=C(CCc1c[nH]c2ccccc12)N=Nc1c(O)[nH]c2ccccc12	19
O=C(CSC(=S)N1CCCCC1)Nc1ncc2c(n1)CC(c1ccco1)CC2=O (stereo not given)	6
O=C(CCCCl)OCc1cn(-c2ccc(Cl)cc2)nn1	16
Cc1c(C(=O)N2CCc3ccccc32)oc2ccccc12	-6
CCCCC(C)n1[nH]c(=O)c2c(C)cc(C)nc21 (stereo not given)	0
CCOC(=O)N1CCN(C(=O)c2ccccc2-c2ccccc2)CC1	15
O=C(N/N=C1/CCc2ccccc21)C1CC1	7
COC(=O)c1cc(NC(=O)c2ccc(C)cc2)c(=O)oc1C	1
Cc1ccc2nsnc2c1S(=O)(=O)NCc1ccc2c(c1)OCO2	8
Cn1c(N)c(C(=O)COC(=O)c2cc(C3CC3)nc3ccccc23)c(=O)n(C)c1=O	7
CCOC(=O)Cn1nc(C)n(-c2ccc(F)cc2)c1=O	18
COCCNC(=O)c1cc(S(=O)(=O)N2CCOCC2)ccc1SCc1cccc(OC)c1OC	7
CCN1CCC2(CC1)N=C(c1ccc(F)cc1)C(=S)N2	16
CN(c1cnn(-c2ccccc2)c(=O)c1Cl)n1cccc1	21
O=C(CN1C(=O)c2ccccc2C1=O)Nc1ccccc1C(=O)NC1CCCCCC1	15
Cc1cccc(C(=O)NCC(c2ccc(F)cc2)N2CCOCC2)c1 (stereo not given)	13
Cc1ccc(OCC(=O)N2CCOCC2)cc1C	5
COc1ccc(C2c3[nH]c4ccccc4c3CCN2CCCn2cccn2)c(F)c1 (stereo not given)	1
Cc1noc(-c2ccccc2)c1NC(=O)Nc1ccccc1	22
Nc1nc(Nc2ccccc2F)nc(NCCO)c1[N+](=O)[O-]	11
O=C(Nc1nnc(C2CC2)s1)c1n[nH]c(=O)c2ccccc12	13
C=C1C(=O)[C@@]23[C@H](O)C[C@@H]4C(C)(C)CC[C@H](O)[C@]4(C)[C@@H]2C[C@H](O)[C@@H]1[C@H]3O	6
CC(NC=C1C(=O)OC(C)(C)OC1=O)C(=O)O (stereo not given)	-3
COc1ccc([C@@H]2C[C@H]3CN(c4ccccc4)C(=O)[C@]34CCCN24)c(OC)c1OC	22
Cc1cc(N/N=C/c2cccc(Cl)c2)nc(NCc2ccccc2)n1	2
COCCNC(=S)Nc1ccccc1Cc1ccccc1	7
CCOC(=O)Cn1c(=O)c2c(nc(Br)n2Cc2ccccc2Cl)n(C)c1=O	11
CC1(C)CC(=O)C2=C(C1)OC1OC(=O)CC21C (stereo not given)	-2
O=C(O)[C@@H]1[C@@H]2C[C@@H]2CN1c1ncccc1[N+](=O)[O-]	-4
OCC1(CCc2ccccc2)CCN(Cc2ccc(OC(F)F)cc2)CC1	17
O=c1[nH]c2ccccc2c(O)c1-c1ccccc1[N+](=O)[O-]	-3
CC(SCc1ccccc1)C(=O)NCc1ccccn1 (stereo not given)	4
COc1cccc(C=NCC(C)N=Cc2cccc(OC)c2O)c1O (stereo not given)	2

New compounds follow.
SMILES	Calb biofilm kill
C(=N\NC1=Nc2cccc3cccc1c23)/c1ccccc1	5
COc1ccc(Oc2nc3c(C)cccn3c(=O)c2/C=C(\C#N)C(N)=O)cc1	19
O=[N+]([O-])c1ccc(Cl)c(/C=N/n2c(-c3ccncc3)n[nH]c2=S)c1	28
Cn1c(NC(=O)c2ccc(F)cc2)c(-c2cccs2)c(=O)c2ccccc21	17
O=C(CCCSc1ccccc1)Nc1nc(-c2ccco2)c(-c2ccco2)s1	18
Cc1ccccc1S(=O)(=O)/N=C(/Nc1c(C)n(C)n(-c2ccccc2)c1=O)c1ccccc1	16
CC(C)C[C@H](NC(=O)c1nc[nH]c1C(=O)N1CCc2ccccc2C1)C(=O)OCc1ccccc1	19
[S-]C(=Nc1ccc(Cl)cc1)N[n+]1ccccc1	9
O=C(N=C1c2ccccc2CN1c1ccc(F)cc1)c1ccc(Cl)nc1	17
Cc1ccc2nc(Nc3ncc4c(n3)CC(C)(C)CC4=O)nc(C)c2c1	29
COC(=O)c1cc(=O)n(Cc2ccccc2)c(=NCc2ccccc2)s1	11
CCCCC/C=N/NC(=O)c1[nH]c2ccc([N+](=O)[O-])cc2c1C	16
CC(/C=C/c1ccccc1)=N/NC(=O)c1cccc(Br)c1	13
COC(=O)c1cnc2c(c1C(=O)OC)c(=O)n(C)c(=O)n2C	19
Cc1ccc(-c2nnc(NCc3nc4ccccc4[nH]3)c3ccccc23)cc1S(=O)(=O)N(C)C	1
c1ccc(Cn2cc(CN3CCCCO3)c(-c3ccc4c(c3)OCO4)n2)cc1	0
COc1ccc(Cl)cc1NC(=O)CN1c2ccccc2CC1C (stereo not given)	9
Nc1nnc(SCc2cn3cc(Cl)ccc3n2)s1	12
COc1cc(/C=C2\CCOC2=O)cc(OC)c1OC	20
Cc1ccc(S(=O)(=O)N(C)C)cc1NC(=O)COC(=O)CCC(=O)c1ccc(F)cc1	13
COc1cc(CN2CCN(c3cccc(Cl)c3)CC2)cc(OC)c1OC	13
Cc1nn2c3ccccc3n(CC(=O)c3cccs3)c2nc1=O	-4
CC(C)NC(=S)Nc1ccc(S(=O)(=O)Nc2ncccn2)cc1	3
CCOc1ccccc1NC(=O)C(=O)NCCC1=CCCCC1	3
CC(Sc1ncnc2sccc12)C(=O)Nc1ccc(C(N)=O)cc1 (stereo not given)	8
Cc1nccn1CCCNCc1c(C(=O)N2CCCCCCC2)nc2ccc(Cl)cn12	11
COc1ccc(-c2nc3ccc(N4CCN(C)CC4)cc3c(=O)[nH]2)cc1	5
Cc1ccc(S(=O)(=O)N2CCC(=O)N(CCO)CC2)cc1	7
CCOC(=O)C1CCN(C(=O)C(C)Oc2ccc(Br)cc2)CC1 (stereo not given)	22
CCOc1ccccc1/C=N/Nc1nc2c(N)ncnc2n1[C@H]1O[C@@H](CO)[C@H](O)[C@@H]1O	16
COCCN(C(=S)Nc1c(C)cccc1C)C(C)c1cccnc1 (stereo not given)	4
COC(=O)C1=C(C)Nc2nc3ccccc3n2C1c1cc(OC)c(OC)c(OC)c1 (stereo not given)	-4
COc1ccc(C2NC(=S)NC(C)=C2C(=O)Nc2ccccn2)cc1OC (stereo not given)	10
N#CCSc1nnc(-c2cnccn2)n1Cc1ccccc1	12
CCSc1nc(-c2cccs2)nc2ccccc12	7
Cc1ccc(S(=O)(=O)N(C)Cc2ccc(C(=O)NN=C3C4CC5CC(C4)CC3C5)cc2)cc1	12
CCOC(=O)CCC(=O)Nc1ccc(S(=O)(=O)N2CCCCC2)cc1	9
COc1ccc(NC(=O)CN(C)S(=O)(=O)c2cccc3nsnc23)cc1	8
O=C(CSc1nc2ccccc2c(=O)n1-c1ccc(F)cc1F)Nc1ccc2c(c1)CCC2	13
CCCCN(C(=O)CCC(=O)Nc1cc(C)on1)C(C(=O)NC(C)(C)C)c1cccc(OC)c1OC (stereo not given)	16
Cc1cc[n+](CC(=O)N2CCCc3ccccc32)cc1	17
CC(C)(C)C(=O)Cn1c(NCCO)nc2ccccc21	17
O=C(OCc1nc2ccccc2[n+]([O-])c1C(=O)c1ccccc1)c1cccs1	7
COc1ccc(-c2cn(-c3ccc(OC)cc3)c(=S)[nH]2)cc1	17
OCCN1CCN(c2ncnc3c2c(-c2ccccc2)cn3-c2ccc(Br)cc2)CC1	19
CCO[C@@H]1OC(C(=O)N2CCN(Cc3ccc4c(c3)OCO4)CC2)=C[C@H](c2ccc(C(F)(F)F)cc2)[C@H]1CCCO	18
COc1cc(C2SCC(=O)N2CCc2ccc(OC)c(OC)c2)ccc1O (stereo not given)	1
O=C(c1ccccc1)c1ccc(OCCOCCN2CCN(Cc3ccccc3)CC2)cc1	12
COc1cccc(/C=N/NC(N)=S)c1OCc1ccccc1Cl	16
COc1cc(/C=N/OCC(=O)Nc2cc(C)cc(C)c2)ccc1OCc1ccc(Cl)cc1	8
COc1ccc(S(=O)(=O)NC2CC2)cc1C(=O)N1CCOCC1	11
O=C(CSc1nnnn1-c1ccccc1)N1N=CCC1c1ccccc1 (stereo not given)	16
O=c1[nH]c2ccccc2nc1/C=C(\O)C1CC1	9
O=C(CCc1nnc(C2CCCCC2)o1)N1CCC(Oc2cccnc2)CC1	18
Cc1nc2ccc(NC(=O)C3COc4ccccc4O3)cc2s1 (stereo not given)	16
CN1CCN(C(=O)/C(C#N)=C/c2ccc(F)cc2)CC1	1
Cc1sc2nc(CSc3ccc([N+](=O)[O-])cc3)[nH]c(=O)c2c1C	-2
CCC(=O)NC(=S)Nc1ccc(NC(=O)c2cccnc2)cc1	10
COCCC(=O)N1CCCC(CNS(=O)(=O)c2ccc(OC)cc2)C1 (stereo not given)	10
COc1ccc(C(=O)Nc2ccccc2C(=O)N2CCCCC2C)cc1 (stereo not given)	14

Additional records.
SMILES	Calb biofilm kill
COc1ccc(C2C(C(C)=O)=C(O)C(=O)N2c2nccs2)cc1OC (stereo not given)	-1
CC1=[N+](C)N(c2ccccc2)C(=O)C1N=Cc1ccc(Cl)cc1 (stereo not given)	11
Fc1ccccc1OCCCCCN1CCCC1	10
CC(Oc1ccc(Cl)cc1Cl)C(=O)Nn1cnnc1 (stereo not given)	19
COCCNS(=O)(=O)c1cc(C(=O)O)ccc1OC	20
COC(=O)[C@H](CC(C)C)NC(=O)N1CCCCC1C (stereo not given in full)	15
C=CCOc1c(CNn2cn[nH]c2=S)cccc1OC	3
